# From PubChem
# B2AR ag: beta2AR agonists driving receptor internalization, primary screen, cell-based, FAP fluorogen, flow cytometry; 340,000 tested, 0.43% active; Am2.2-beta2AR cells; reference of the scale not given here; Beta-2 adrenergic receptor (Homo sapiens), P07550; response, % (concentration not given with the values);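 active = response above a set limit, near 3 SD of response in nonfluorescent compounds, cut at about 42% in these data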;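 note: stock transfer was 100 nL into about 11 µL; a reference agonist was the positive control; negative values mostly stem from fluorescent compounds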
# Target sequence (P07550 whole entry, looked up): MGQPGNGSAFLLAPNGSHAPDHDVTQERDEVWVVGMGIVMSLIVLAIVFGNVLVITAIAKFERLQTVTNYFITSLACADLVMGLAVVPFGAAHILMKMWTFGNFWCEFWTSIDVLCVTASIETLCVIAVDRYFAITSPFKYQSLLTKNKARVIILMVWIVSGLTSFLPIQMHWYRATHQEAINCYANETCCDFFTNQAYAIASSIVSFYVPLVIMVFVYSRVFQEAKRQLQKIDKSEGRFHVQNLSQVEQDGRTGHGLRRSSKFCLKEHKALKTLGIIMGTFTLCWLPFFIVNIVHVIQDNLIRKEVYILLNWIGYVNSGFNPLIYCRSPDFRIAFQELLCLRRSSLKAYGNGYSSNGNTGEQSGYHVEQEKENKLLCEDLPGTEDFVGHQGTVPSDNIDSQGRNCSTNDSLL
# Vif TR-FRET: inhibitors of Vif binding to APOBEC3G peptide, primary screen, biochemical, TR-FRET, GST-Vif 1-94, biotin-A3G peptide, dose response retest (AID 1117319). 260,000 tested, 0.57% active. inhibition, %, or IC50 in µM where a hit was titrated. TR-FRET GST-Vif / biotin-A3G peptide binding; higher % means a stronger effect; test concentration not given here; strong numbers were not always called active;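 active = above the screen mean plus three standard deviations and confirmed in dose response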;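 note: Vif residues 1-94 fused to GST binding biotinylated APOBEC3G peptide 110-148; 0% = full assay without inhibitor and 100% = GST in place of GST-Vif; retest series ran down from 100 µM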
# HNF4A DNA FP: change in binding of human HNF4A to DNA, primary screen, biochemical, fluorescence polarization, FITC-DNA; Hepatocyte nuclear factor 4-alpha (Homo sapiens), P41235; 1 h; activity change, % at 10 µM; 360,000 tested, 0.3% active; AID 1224865, 2016; in the data active = activity change above about 30%, passing the limit was not always enough;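 note: controls were the assay level and a saturating level of protein; the project sought stronger binding though the title names inhibitors; some compounds called inactive have numbers as strong as hits; positive values seem to mean higher polarization but the record does not say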
# Target sequence (P41235 whole entry, looked up): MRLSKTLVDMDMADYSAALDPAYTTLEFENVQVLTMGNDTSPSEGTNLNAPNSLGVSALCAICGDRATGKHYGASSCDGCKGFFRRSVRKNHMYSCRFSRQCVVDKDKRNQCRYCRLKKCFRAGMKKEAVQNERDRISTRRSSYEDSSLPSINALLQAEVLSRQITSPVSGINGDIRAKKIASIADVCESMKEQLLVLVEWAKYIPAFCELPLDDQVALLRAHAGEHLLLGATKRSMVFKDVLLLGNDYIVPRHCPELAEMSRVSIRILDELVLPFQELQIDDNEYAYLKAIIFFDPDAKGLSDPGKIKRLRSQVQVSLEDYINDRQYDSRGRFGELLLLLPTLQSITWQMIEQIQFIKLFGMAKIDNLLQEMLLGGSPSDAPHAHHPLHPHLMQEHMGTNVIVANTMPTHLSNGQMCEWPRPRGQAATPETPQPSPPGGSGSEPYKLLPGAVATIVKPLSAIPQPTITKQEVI
# Numbers without * were called inactive; . = no result given. Only part of the results is shown, so the mix of outcomes need not match the whole.
SMILES,B2AR ag,Vif TR-FRET,HNF4A DNA FP
CC(=O)c1cccc(NC(=O)CSc2ccc(-c3cccnc3)nn2)c1,-11.0,.,-0.5
O=Cc1ccc([B-](F)(F)F)s1,-0.2,.,2.2
Cc1ccc(C)c(N2CCN(C(=O)CCc3nc(-c4ccc(Cl)cc4)no3)CC2)c1,1.7,.,1.4
COC(=O)C1=C(C(=O)OC)[C@]2([C@H]3CC=CCN[C@@H](Cc4ccccc4)C(=O)N3Cc3ccccc3)C=C[C@H]1O2,-5.0,.,2.0
Cn1c(/C=C(\C#N)C(N)=S)ccc1-c1ccc(Br)cc1,8.6,.,-5.7
COc1cc(OC)c2ccc(=O)oc2c1,4.3,.,-1.5
COc1ccc(C(=O)OCCN2C(=O)c3ccccc3C2=O)cc1OC,7.7,.,2.6
CCN1/C(=C/C=C2/SC(=Nc3cccc4ncccc34)N(C)C2=O)Sc2ccccc21,-150.9,.,103.7
CN(C)S(=O)(=O)c1ccc(N2CCCC2)c(C(=O)Nc2ccccc2N2CCOCC2)c1,0.6,.,-2.2
CN1C[C@@H]2[C@@H]3C(=O)N(C)C(=O)[C@@H]3[C@](C)(C1=O)N2C(=O)c1ccc(F)cc1,-4.2,.,-2.4
CCN1CCN(S(=O)(=O)c2ccc(Cl)c(C(=O)Oc3ccc(CC(=O)OC)cc3)c2)CC1,0.7,.,-3.2
COc1ccc(/C=C(/C(=O)N2CCCCC2C(=O)O)c2ccc(OC)c(OC)c2)cc1 (stereo unspecified),-2.4,.,-3.4

# Reprinted from the part before: two entries, followed by the next part.
SMILES,B2AR ag,Vif TR-FRET,HNF4A DNA FP
CCN1CCN(S(=O)(=O)c2ccc(Cl)c(C(=O)Oc3ccc(CC(=O)OC)cc3)c2)CC1,0.7,.,-3.2
COc1ccc(/C=C(/C(=O)N2CCCCC2C(=O)O)c2ccc(OC)c(OC)c2)cc1 (stereo unspecified),-2.4,.,-3.4
c1ccc2c(c1)c1c(c3ccccc32)CN2CCCC2C1 (stereo unspecified),-8.7,.,-10.1
CN1C[C@@H]2[C@@H]3C(=O)N(Cc4ccccc4)C(=O)[C@@H]3[C@](Cc3ccccc3)(C1=O)N2C(=O)c1ccc(Cl)c(Cl)c1,1.4,.,2.0
Cc1ccc(S(=O)(=O)N2CCCCC2)cc1NC(=O)c1ccc(Cl)nc1,-10.8,.,1.9
COc1cc(OC)c(N(C)S(=O)(=O)c2cccc(C(=O)OCC(=O)N(C)C3CCCCC3)c2)cc1Cl,-2.5,.,1.5
O=C(Cn1cc(COc2ccc3ccc(=O)oc3c2)nn1)c1ccc(O)cc1,6.8,.,-3.2
O=C(Nc1ccccc1OC(F)F)c1ccc(S(=O)(=O)N2CCCC2)cc1,3.6,.,-0.8
COc1ccccc1OCCNC(=O)c1ccc(NC(=O)CC2SC(N3CCCC3)=NC2=O)cc1 (stereo unspecified),35.2,.,1.0
Cc1cn(CC(=O)NCCc2ccccn2)c(=O)[nH]c1=O,7.3,.,-0.3
CCCCCn1c(=O)[nH]c2cc(C(=O)N3CCN(c4ccc(F)cc4)CC3)ccc2c1=O,-5.3,.,1.5
O=C(CCCl)N1c2ccccc2C=Cc2ccccc21,1.6,.,0.2
COc1ccccc1N1CCN(C(=O)[C@H](C)NS(=O)(=O)c2ccc3c(c2)OCCCO3)CC1,-2.2,.,1.5
O=C(C[C@H]1C[C@H](C(=O)N2CCCCC2)[C@@]2(CCc3ccccc3)c3[nH]c4ccc(Cl)cc4c3CCN2C1=O)NCc1ccco1,10.4,.,2.1
CC(Sc1nc2ccccc2c(=O)n1CCCN1CCOCC1)C(=O)N1CCc2ccccc21 (stereo unspecified),2.3,.,3.7
Cc1cnc(NC(=O)c2cc(-c3ccccc3)nn2-c2ccccc2)s1,-5.7,.,-1.1
Cc1ccccc1C(N)=O,4.8,.,4.3
Cc1ccc([C@@H]2CC=C(C(=O)O)[C@H](c3ccccc3)N2S(=O)(=O)c2ccccc2C)cc1,-0.2,.,-5.6
CC[C@]12c3[nH]c4ccc(Cl)cc4c3CCN1C(=O)[C@@H](CC(=O)NCCC1=CCCCC1)C[C@@H]2C(=O)N1CCN(C(=O)c2ccco2)CC1,-2.6,.,0.1
CCOC(=O)C1=C(c2ccccc2)c2ccc(OC)cc2N(S(=O)(=O)C(F)(F)F)C1C(=O)OCC (stereo unspecified),11.5,.,-1.7
COc1cccc(C=C2SC(=S)NC2=O)c1,-0.5,.,2.2
CCOC(=O)c1ccccc1NC(=O)CSc1nc2c(sc(=S)n2CC)c(=O)[nH]1,3.9,.,4.1
CCN1C(=O)C(CC(=O)NCCc2ccccc2)N(NC(=O)c2ccc(Br)cc2)C1=S (stereo unspecified),.,-3.9%,0.4
CCOC(=O)CNC(=O)N1C[C@H]2CON(C)[C@H]2C[C@H]1c1ccccc1Br,.,9.5%,-1.1
O=C1CC2CCCC(C1)S2=O (stereo unspecified),.,-4.9%,-3.4
C#CCN(C[C@@H]1[C@@H](OC(=O)NC2CCCC2)[C@@H](OC(=O)NC2CCCC2)Cn2c(=O)ccc(=O)n21)S(=O)(=O)c1ccc(C)cc1,.,3.4%,5.2
O=C(CN1CCOCC1)N1c2ccccc2Sc2ccc(Cl)cc21,.,-2.7%,-3.8
COC(=O)C(NC(=O)c1ccccc1)C(C)(C)SCc1ccccc1 (stereo unspecified),.,4.9%,-3.4
CNS(=O)(=O)c1ccc(CNC[C@H]2O[C@@H](n3cc(C)c(=O)[nH]c3=O)C[C@@H]2O)cc1,.,6.2%,5.5
O=C(COC(=O)c1ccc(Cl)c(S(=O)(=O)N2CCCCC2)c1)NC1CCCCC1,.,13.0%,-3.1
Clc1ccc(C(c2cccs2)N2CCNCC2)cc1 (stereo unspecified),.,3.5%,-5.2
COc1ccc(NC(=O)N(C)C[C@H]2OCc3cn(nn3)CCCC(=O)N([C@@H](C)CO)C[C@@H]2C)cc1,.,-5.0%,1.7
CCN(CC)CCn1c(=S)[nH]c2cc(C(=O)NCc3ccccc3)ccc2c1=O,.,-1.0%,-2.1
COc1ccc([C@H]2C[C@H](O)[C@@H](n3cc(C4CC4)nn3)CN2Cc2cccs2)cc1,.,-0.3%,1.8
CN1C(=O)[C@H]2[C@@H](c3ccccc3)N[C@]3(CCCN(Cc4ccco4)C3=O)[C@H]2C1=O,.,-2.3%,4.8
COc1ccc(/C=C/C(=O)OCC(=O)N2c3ccccc3CC2C)c(OC)c1 (stereo unspecified),.,-8.3%,1.8
CC1=C(C(=O)N(C)C)CC(CC(=O)NCCCCc2ccccc2)C(=O)N1CCC1=CCCCC1 (stereo unspecified),.,-0.6%,0.0
COc1ccc(S(=O)(=O)N2CCC(C(=O)N[C@@H](C)C(=O)NCc3ccccn3)CC2)cc1,.,0.8%,-4.9

# Entries of single compounds from above.
# `COc1ccc(C(=O)OCCN2C(=O)c3ccccc3C2=O)cc1OC` across the screens: B2AR ag: 7.7; Vif TR-FRET: .; HNF4A DNA FP: 2.6
# `O=C(C[C@H]1C[C@H](C(=O)N2CCCCC2)[C@@]2(CCc3ccccc3)c3[nH]c4ccc(Cl)cc4c3CCN2C1=O)NCc1ccco1` across the screens: B2AR ag: 10.4; Vif TR-FRET: .; HNF4A DNA FP: 2.1

# The listing continues:
SMILES,B2AR ag,Vif TR-FRET,HNF4A DNA FP
CCN(CC(=O)Nc1ccc(NC(C)=O)cc1)CC(=O)Nc1cccc2ccccc12,.,3.8%,-0.4
CCCC#Cc1ccc2c(c1)O[C@H](CN(C)S(=O)(=O)c1cccc(OC)c1)[C@H](C)CN([C@H](C)CO)S2(=O)=O,.,3.0%,0.1
C[C@H](CO)N1C[C@H](C)[C@@H](CN(C)C(=O)c2ccccn2)Oc2cc(Br)ccc2S1(=O)=O,.,0.5%,0.5
O[C@@H]1CN(CC2CCCCC2)[C@@H](c2ccc(Cl)cc2)C[C@H]1n1cc(-c2ccc(F)cc2)nn1,.,-3.9%,-3.1
COc1ccc(-n2c(-c3ccc(C(C)(C)C)cc3)n[nH]c2=S)c(OC)c1,.,-3.8%,-1.6
CCN(CC(=O)Nc1ccc(NC(C)=O)cc1)C(=O)C1CC1,.,2.2%,0.9
CC(C)(C)OC(=O)N1CCN(C(=O)c2[nH]cnc2C(=O)Nc2ccccc2F)CC1,.,0.4%,2.8
O=C(CSc1ccccc1F)NCC(c1ccco1)N1CCCCC1 (stereo unspecified),.,-1.0%,-2.1
CCN(CC)S(=O)(=O)c1ccc(N2CC(C(=O)NCc3ccco3)CC2=O)cc1 (stereo unspecified),.,-1.0%,-1.9
N=C1CCCC1C(=S)SCCC(N)=O (stereo unspecified),.,-1.4%,3.8
O=C(c1cccs1)N1C[C@H](n2cc(-c3ccc(F)cc3)nn2)[C@@H](O)C[C@@H]1c1ccc(Cl)cc1,.,-7.2%,0.5
C[C@@H]1CN([C@@H](C)CO)C(=O)CCCn2nncc2CO[C@H]1CN(C)S(=O)(=O)c1ccccc1F,.,-0.4%,-1.1
CC(C)CC1C(=O)N(Cc2cn(CCC3OCCO3)nn2)CCS(=O)(=O)N1Cc1ccc(-c2ccc(F)nc2)cc1 (stereo unspecified),.,13.2%,-2.3
C[C@H]1CN([C@@H](C)CO)C(=O)c2cc(Br)cnc2O[C@H]1CN(C)C(=O)Cc1ccccn1,.,-2.8%,-1.9
c1ccc(CNCc2ccc(CNCc3ccccc3)cc2)cc1,.,-10.7%,0.2
C[C@@H]1CN([C@@H](C)CO)C(=O)c2cc(Br)cnc2O[C@H]1CN(C)S(=O)(=O)c1ccccc1,.,-9.9%,-0.1
O[C@H]1C[C@H](c2ccc(Cl)cc2)N(CC2CCCCC2)C[C@@H]1n1cc(-c2ccc(F)cc2)nn1,.,-1.1%,-2.5
O=C1NCCN(CC2CCN(CCc3ccccc3)CC2)C1=O,.,-0.7%,-3.3
Cn1c(CC(O)c2nc3ccccc3n2C)nc2ccccc21 (stereo unspecified),.,-6.1%,-1.4
CC1C(=O)N(Cc2cn(CC3CCCCC3)nn2)CCS(=O)(=O)N1Cc1ccc(-c2ccc(F)nc2)cc1 (stereo unspecified),.,-0.2%,-0.6
CCN(CC)c1ccc(/C=N/NC(=O)c2nnn(-c3nonc3N)c2CN(C)C2CCCCC2)cc1,.,2.6%,-2.8
CNS(=O)(=O)c1ccc2c(c1)[nH]c(=S)n2C,.,-2.6%,-10.8
Cc1ccc(S(=O)ONc2cccc(NOS(=O)c3ccc(C)cc3)c2)cc1 (stereo unspecified),.,1.2%,-0.3
CCN(c1ccccc1)S(=O)(=O)c1ccc(C(=O)N2CCN(c3ccccc3F)CC2)cc1,.,-1.4%,-3.8
C[C@H](CO)N1C[C@H](C)[C@H](CN(C)C(=O)Nc2ccc(F)cc2)OCc2ccccc2-c2c(n(C)c3ccccc23)C1=O,.,0.8%,1.3
C[C@H](CO)NC(=O)c1nc[nH]c1C(=O)N[C@H](C)c1ccccc1,.,-2.9%,-2.7
C[C@@H]1CN([C@H](C)CO)C(=O)CCCn2nncc2CO[C@H]1CN(C)C(=O)Cc1ccccc1,.,-3.8%,1.8
CCc1ccc(/C=C2\SC(=S)N(CCCC(=O)N3CCN(C)CC3)C2=O)cc1,.,-0.3%,4.9
C[C@@H]1CCCCO[C@H](CN(C)C(=O)Cc2ccccc2)[C@@H](C)CN([C@H](C)CO)C(=O)c2cc(NC(=O)Nc3ccccc3)ccc2O1,.,-2.5%,0.7
CC(=O)c1ccc(N2CCN(C(=O)COc3ccc4ccccc4c3)CC2)cc1,.,-2.9%,-1.1
C[C@@H]1CN([C@H](C)CO)C(=O)c2c(c3ccccc3n2C)-c2ccccc2CO[C@H]1CN(C)Cc1cccc(C(=O)O)c1,.,-4.5%,-0.8
CC(=O)c1ccc(OCC(=O)OCC(=O)c2ccc(S(=O)(=O)N3CCCCC3)cc2)cc1,.,-11.5%,0.1
C[C@@H]1CN([C@@H](C)CO)C(=O)CCCn2nncc2CO[C@H]1CN(C)C(=O)Nc1ccccc1C(F)(F)F,.,4.5%,-0.6
CCN(CC(=O)Nc1c(F)cccc1F)C(=O)c1ccc(OC)c(S(=O)(=O)NC2CCCC2)c1,.,-4.7%,-1.9
CCN(CC)C(=O)C1=C(C)N(CCCN2CCCC2=O)C(=O)C(CC(=O)NCCN2CCOCC2)C1 (stereo unspecified),.,10.5%,1.0
O=C(CC(CC(=O)c1ccccc1)c1ccco1)c1ccccc1,.,2.2%,1.4
Cc1ccc(-c2nc(SC(C)C(=O)NC3CC3)n[nH]2)cc1 (stereo unspecified),.,-1.6%,-1.2
C#CC1(NC(=S)Nc2cccc(OC)c2)CCCCC1,.,-5.9%,6.0
COc1ccc(NC(=O)N(C)C[C@H]2OCc3cnnn3CCCC(=O)N([C@@H](C)CO)C[C@H]2C)cc1,.,2.0%,4.0
CN(Cc1ccco1)C(=O)c1cccc(S(=O)(=O)N2CCN(Cc3ccccc3)CC2)c1,.,1.3%,-2.4
COc1ccc(-n2c(=O)c(CCC(=O)N3CCN(c4cccc(OC)c4)CC3)nc3ccccc32)cc1,.,0.7%,4.8
N#Cc1cnc(=S)n(-c2cc(C(F)(F)F)cc(C(F)(F)F)c2)c1N,.,-9.1%,24.6
COc1ccc(NC(=O)N(C)C[C@@H]2Oc3cc(Br)ccc3S(=O)(=O)N([C@H](C)CO)C[C@H]2C)cc1,.,-5.4%,-2.3
C[C@@H]1CN([C@@H](C)CO)C(=O)c2cc(NC(=O)c3ccncc3)ccc2O[C@@H](C)CCCCO[C@@H]1CN(C)C(=O)Cc1ccccc1,.,0.9%,2.3
